Source: PubChem BioAssay
VDR inh: inhibitors of human vitamin D receptor; VDR-SRC2-3 peptide fluorescence polarization, 2 h; Potency, µM, for the others: max response, negative = inhibition, usual class: inhibitors; 400,000 tested, 0.93% active; active = well fitted inhibition curve with a large enough effect; inconclusive = small, poorly fitted or top-dose-only effect, or another doubt; inactive = no such curve, though single readings can be large or run the other way; also: series mostly up to about 120 µM
Target sequence (P11473 whole entry, looked up): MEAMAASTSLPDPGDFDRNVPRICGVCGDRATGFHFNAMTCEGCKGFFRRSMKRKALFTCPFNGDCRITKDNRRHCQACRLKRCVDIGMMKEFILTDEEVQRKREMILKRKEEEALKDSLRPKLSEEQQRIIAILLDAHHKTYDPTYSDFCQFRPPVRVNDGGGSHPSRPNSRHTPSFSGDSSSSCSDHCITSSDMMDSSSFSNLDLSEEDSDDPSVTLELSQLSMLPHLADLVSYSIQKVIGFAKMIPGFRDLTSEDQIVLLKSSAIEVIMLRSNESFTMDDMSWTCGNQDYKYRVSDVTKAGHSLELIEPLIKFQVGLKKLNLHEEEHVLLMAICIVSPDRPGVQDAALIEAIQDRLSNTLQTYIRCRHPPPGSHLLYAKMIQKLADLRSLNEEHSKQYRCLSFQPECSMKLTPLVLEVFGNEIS
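Measured by FP: displacement of SRC2-3 coactivator peptide from VDR by library compounds, following a two-hour ambient incubation.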
Active calls of the source: *; ? = inconclusive; & = joins results of further samples; [ ] = dose if it differs, or a comment. % is scaled to controls: 0 for no effect and ±100 for the full control effect; potency is read from the fitted curve at half-maximal effect. Not all compounds are listed. The share of hits here may be higher or lower than overall.

VDR inh	Structure
-19%	O=C(CSc1nc2ccccc2c(=O)n1CCC(=O)N1CCN(c2ccccc2)CC1)NCC1CCCO1 (stereo not drawn)
1%	Cc1ccn2c(c1)nc(=O)c1cc(S(=O)(=O)N3CCC(C)CC3)ccc12
7%	CCN(CC(=O)Nc1ccc2c(c1)OCCO2)C(=O)CCc1ccc(OC)cc1
36%&9%[activator]	Cc1cc(C)c[n+](-c2nc3ccccc3nc2C(=C=[N-])C#N)c1
-22%	Cn1nc(C(=O)NNc2c(F)c(F)cc(F)c2F)c2ccccc2c1=O
-14%	CCc1ccc(N(CC)C(=O)c2cn(C)c(=O)c3ccccc23)cc1
-17%	CCN(CC)CCC(O)(c1ccccc1)C1CCCCC1 (stereo not drawn)
3%	Cc1cccc(NC(=O)c2oc3c(c2C)C(=O)CC(C)(C)C3)n1
-6%	COc1ccccc1NC(=O)CN(c1ccccc1C)S(C)(=O)=O
-5%	CCCCN(C(=O)c1ccccc1OCc1ccc(F)cc1)c1c(N)n(CC(C)C)c(=O)[nH]c1=O
-15%	COc1ccc(OCCOC(=O)Nc2ccccc2)cc1
7%	Cc1ccc2c(c1)C(=O)c1c(C(=O)O)cccc1-2
79µM*	O=C1NC(=O)/C(=C/c2ccc(N3CCOCC3)o2)N1
8%	CNC(=S)N/N=C(\C)c1ccc(N2CCOCC2)cc1
-18%	CCCN(CCC)CCCNC(=O)c1cc2c(=O)[nH]c3ccccc3c2s1
20%	CC1(C)C(c2ccco2)=[N+]([O-])C2(CCCCC2=O)N1O (stereo not drawn)
2%&-4%	O=C(O)/C=C/C(=O)Nc1ccc(S(=O)(=O)Nc2nccs2)cc1
-12%	Cn1c(=N)n(CC(=O)c2cccs2)c2ccccc21
3%	Cc1ccc2c(c1)c(=O)c1ccccc1n2CCCC(=O)Nc1c(F)cccc1F
16%	COc1ccc(NC2=NC3(CCCCC3)N=C(N)N2)cc1
-13%	CC(Sc1nc(C2CC2)n(-c2ccccc2)n1)C(=O)c1c(N)n(C)c(=O)n(C)c1=O (stereo not drawn)
6%	Fc1ccccc1CN1CCCN(C(=S)Nc2cccc(Cl)c2)C1
-3%	CCOc1ccc(Cl)cc1S(=O)(=O)NCc1cccnc1
-5%	CCOC(=O)c1sc(C)c2c1NC(C)(c1cccc3ccccc13)NC2=O (stereo not drawn)
?	Cn1cccc1C(=O)N1CCC2(CCCN(c3ccccc3)C2)CC1
-2%	CSc1ccc(/C=N/NC(=O)c2cc(O)cc(O)c2)cc1
2%	Cc1ccccc1N(CC(=O)NCc1ccc2c(c1)OCO2)C(=O)C1CSC(=O)C1 (stereo not drawn)
5%	CC(=O)c1ccc(NC(=O)Nc2ccc(NS(=O)(=O)c3ccc(C)cc3)cc2)cc1
-11%	CCCCCCCCNC(=O)/C(C#N)=C/c1ccc2c(c1)OCCO2
3%	Cc1nc2cc(NS(=O)(=O)c3ccccc3)ccc2n1C
-10%	CCCCCCCCNc1nc(Cl)nc(NCCN2CCOCC2)n1
11%	COc1cc(CN2CCN(Cc3cccc(OC)c3OC)CC2)cc(OC)c1
6%	CC(C)(CN1CCCC1)NS(=O)(=O)c1ccccc1
9%	COc1ccc(CN(C(=O)c2oc3cc(C)c(C)cc3c2C)C2CCS(=O)(=O)C2)cc1OC (stereo not drawn)
-14%	COC(=O)C1=C(C(=O)OC)[C@@H]2N(C)c3ccccc3[C@@]23C[C@@H](C(=O)OC)N(C(=O)c2ccco2)C3=N1
16%	CC(C)c1cc(CN2CCOCC2)cc(C(C)C)c1O
5%	COc1cccc(N2CCN(S(=O)(=O)c3ccc4c(c3)CCCN4C(C)=O)CC2)c1
-21%	COc1cc(Cl)c(C)cc1NC(=O)CNC(C)c1ccccc1OC (stereo not drawn)
1%	CCCN(c1ccccc1F)S(=O)(=O)c1cc(-c2cc(C)no2)ccc1OC
-1%	CCc1ccc(S(=O)(=O)Nc2cc3c(cc2C)n(C)c(=O)c(=O)n3C)cc1
13%	CCc1cccc(C)c1NC(=O)C(CC)n1ncn2c(cc3cc(C)ccc32)c1=O (stereo not drawn)
1%	COc1cccc(N2CCN(C(=O)c3cccn4c(=O)c5c(C)c(C)sc5nc34)CC2)c1
2%	COc1ccc(NC(=O)C2=C(C)NC(=O)NC2c2cccs2)c(OC)c1 (stereo not drawn)
-12%	Cc1[nH]c(=O)[nH]c(=O)c1S(=O)(=O)Nc1ccc(Oc2ccccc2)cc1
-5%	O=c1[nH]nc(-c2ccccc2)cc1-c1ccccc1
2%	COc1cccc(C(=O)Nc2cccc(OC(C)=O)c2)c1
?	CC(=C/c1ccccc1)/C=N/NC(=O)CSc1nc(C)cc(C)n1
8%	Cc1ccccc1N/C(=N/S(=O)(=O)c1cc(F)ccc1F)c1ccccc1
9%	CCc1ccc(NC(=O)CSC2=Nc3ccccc3C3=NC(CCC(=O)NCCc4ccccc4)C(=O)N23)cc1 (stereo not drawn)
-18%	NS(=O)(=O)c1ccc(CCNC(=O)c2ccc3nccnc3c2)cc1
-11%	C[C@H]1CC[C@]2(O[C@H](CCO)C[C@@H](O)[C@@H]2O)O1
0%	Cc1ccc(S(=O)(=O)N(C)C[C@@H]2Oc3ccc(NC(=O)Nc4cccc5ccccc45)cc3C(=O)N([C@H](C)CO)C[C@H]2C)cc1
8%	COc1cccc(-n2c(SCC(=O)N3CCOCC3)nc3c([nH]c4ccccc43)c2=O)c1
-8%	COC(=O)C(Cc1ccc(O)cc1)NC(=O)CCOc1ccc(OC)cc1 (stereo not drawn)
29%	COc1ccc(C(=O)CCC(=O)NCCc2c[nH]c3ccccc23)cc1OC
4%	N#C/C(=C\C=C\c1ccccc1)C(=O)N1CCCC1
11%	CCOc1cc2[nH]c(=S)n(CCCN(CC)CC)c(=O)c2cc1OCC
-13%	CCOC(=O)c1cc(-c2ccccc2)nn1Cc1ccccc1
-13%	O=C(Nc1ccccc1NC(=O)c1ccco1)c1ccco1
0%	Cc1cccc(NC(=O)Cn2c(=O)n(Cc3ccccc3)c(=O)c3oc4ccccc4c32)c1C

Further compounds follow.
VDR inh	Structure
11%	O=C(NCc1cccs1)C1CCCN1C(=O)NC1CCCCC1 (stereo not drawn)
12%	COc1ccc(N2CCN(C(=O)COC(=O)CCc3ccccc3OC)CC2)cc1
-11%	COc1ccc(N2CCN(C(=O)CN3C(=O)NC(c4ccc(OC)cc4)(c4ccc(OC)cc4)C3=O)CC2)cc1
-1%	COCc1cc(=O)n2[nH]c(-c3ccccc3)cc2n1
-9%	COc1ccc2c(c1)OC[C@H]1[C@H]2N2C(=O)c3ccc(C)cc3NC(=O)[C@@]2(C)[C@H]1c1ccccc1
?	O=c1[nH]cc(C(F)(F)F)cc1NS(=O)(=O)c1ccccc1[N+](=O)[O-]
-20%	CCOc1ccc2[nH]c(C)c(CN3CCCCCC3)c(=O)c2c1
5%	CCc1ccccc1NC(=O)Cn1ncc2c(C)n(Cc3ccccc3F)c(C)c2c1=O
-8%	C[C@H](NC(=O)COc1ccc(Cl)cc1)C(=O)N1CCC2(CC1)NCCc1[nH]cnc12
-12%	O=C(/C=C/c1cccs1)NC(=S)NNC(=O)c1ccccc1O
8%	CCCN(Cc1nc(-c2ccc(Cl)cc2)no1)CC1CCCO1 (stereo not drawn)
7%	CCCC(=O)N(c1ccc2oc3c(c2c1)CCCC3)S(=O)(=O)c1cc(C)ccc1C
-3%	CC(C)Cn1c(SCC(=O)Nc2cccnc2Cl)nnc1-c1ccco1
-8%	Cc1ccc2nc(Cl)c(/C=N/n3c(C)nnc3C)cc2c1
?	O=C(CCl)N1c2ccccc2SCC1c1ccccc1 (stereo not drawn)
-2%	Cn1c(/C=N/O)nc2ccccc21
1%	Cn1c(-n2cccc2)c(-c2c(-c3ccccc3)[nH]c3c2c(=O)n(C)c(=O)n3C)c(=O)n(C)c1=O
-4%	NS(=O)(=O)c1ccc(CCNC(=O)c2cc(-c3cc(Cl)ccc3O)n[nH]2)cc1
-4%	CN(C)CCn1c2c(c(SCC(=O)Nc3ccc(F)cc3F)nc1=O)CCC2
2%	O=C(O)C1CCCCN1S(=O)(=O)c1cccc2nsnc12 (stereo not drawn)
9%	Cc1c(-c2nc(-c3ccccc3)no2)nnn1-c1ccc(F)c(Cl)c1
-18%	FC(F)(F)c1ccccc1-c1ccc2ncnc(NCCN3CCOCC3)c2c1
2%	CCN(/N=C/c1ccc(N(C)C)cc1)c1nc2ccccc2[nH]1
10%	CCOC(=O)c1ccccc1NC(=O)COC(=O)CCNS(=O)(=O)c1ccccc1
5%	COc1cccc(/C=N/n2c(-c3cc(C)[nH]n3)n[nH]c2=S)c1O
7%	COc1cc(C)ccc1Oc1ccc([N+](=O)[O-])cc1
12%	COc1cccc(CNC(=O)C2CCN(c3nc4ccc(Cl)cc4[nH]3)CC2)c1
5%	COc1ccc(Cc2cc(-c3ccc(F)cc3)n[nH]c2=O)cc1
5%	O=C(Nc1cccnc1Oc1ncnc2cc(Cl)ccc12)c1ccc(F)cc1
22%	CC(C)NS(=O)(=O)c1ccc(N2C(=O)c3ccccc3C2=O)cc1
2%	COc1cccc2c1N1C(=O)c3c(C(=O)O)cccc3C1CC2(C)C (stereo not drawn)
7%	Cc1onc(-c2ccccc2Cl)c1C(=O)Oc1ccccc1F
2%	COc1ccc(OC)c(NC(=O)Cn2cc(C(=O)c3ccc(Cl)cc3)c(=O)c3cc(OC)ccc32)c1
15%	CCOc1ccc(NC(C)=O)cc1[N+](=O)[O-]
-23%	Cc1ccc2c(C(=O)CNc3nncs3)c(C)[nH]c2c1
-38%	CCOC(=O)C(C)Sc1nnc(Cn2c(=O)sc3ccccc32)n1-c1ccccc1 (stereo not drawn)

Taken from the listing, 16 compounds:
VDR inh	Structure
-4%	NS(=O)(=O)c1ccc(CCNC(=O)c2cc(-c3cc(Cl)ccc3O)n[nH]2)cc1
-4%	CN(C)CCn1c2c(c(SCC(=O)Nc3ccc(F)cc3F)nc1=O)CCC2
2%	O=C(O)C1CCCCN1S(=O)(=O)c1cccc2nsnc12 (stereo not drawn)
9%	Cc1c(-c2nc(-c3ccccc3)no2)nnn1-c1ccc(F)c(Cl)c1
-18%	FC(F)(F)c1ccccc1-c1ccc2ncnc(NCCN3CCOCC3)c2c1
2%	CCN(/N=C/c1ccc(N(C)C)cc1)c1nc2ccccc2[nH]1
10%	CCOC(=O)c1ccccc1NC(=O)COC(=O)CCNS(=O)(=O)c1ccccc1
5%	COc1cccc(/C=N/n2c(-c3cc(C)[nH]n3)n[nH]c2=S)c1O
7%	COc1cc(C)ccc1Oc1ccc([N+](=O)[O-])cc1
12%	COc1cccc(CNC(=O)C2CCN(c3nc4ccc(Cl)cc4[nH]3)CC2)c1
5%	COc1ccc(Cc2cc(-c3ccc(F)cc3)n[nH]c2=O)cc1
5%	O=C(Nc1cccnc1Oc1ncnc2cc(Cl)ccc12)c1ccc(F)cc1
22%	CC(C)NS(=O)(=O)c1ccc(N2C(=O)c3ccccc3C2=O)cc1
2%	COc1cccc2c1N1C(=O)c3c(C(=O)O)cccc3C1CC2(C)C (stereo not drawn)
7%	Cc1onc(-c2ccccc2Cl)c1C(=O)Oc1ccccc1F
2%	COc1ccc(OC)c(NC(=O)Cn2cc(C(=O)c3ccc(Cl)cc3)c(=O)c3cc(OC)ccc32)c1

(next part)
VDR inh	Structure
11%	CC1=NN(c2ccccc2)C(=O)C1(C)C
-16%	O=S(=O)(c1ccc2c(c1)CCC2)N1CCNCC1
2%	Cc1cccc2nc(-c3cccnc3)c(NCCC(C)C)n12
-11%	CCN(C(=O)CSc1cc(-c2ccccc2)c2ccc(OC)cc2n1)C1CCS(=O)(=O)C1 (stereo not drawn)
-12%	COc1ccccc1N(CC(=O)NCCc1ccccc1)C(=O)CCC(=O)Nc1ccccn1
2%	COCC(=O)Nc1nnc(SCC(=O)N2C(C)CCCC2C)s1 (stereo not drawn)
32µM*	Cc1noc(C)c1-c1cncnc1N1CCN(C)CC1
-12%	COc1ccc(/C=C/c2c([N+](=O)[O-])c(=O)n(C)c(=O)n2C)cc1O
-17%	O=C(CSc1nccn1-c1ccccc1)Nc1ccc2c(c1)OCO2
6%	Cc1ccccc1C(=O)Nc1nc(SCc2ccc(Cl)cc2)n[nH]1
2%	COc1cccc(N2CCN(C(=O)c3ccc(Cn4c(=O)[nH]c5cc(OC)c(OC)cc5c4=O)cc3)CC2)c1
-7%	CCCCCOC(=O)Nc1nnc(CCC)s1
?	COc1ccccc1C(=O)Nc1cccc(S(=O)(=O)N2CCCC2)c1
5%	CCc1cnc2c(c1SCC(=O)Nc1cc(Cl)ccc1OC)c(=O)n(C)c(=O)n2C
-8%	O=Cc1c(C(=O)O)n(CC(=O)O)c2ccccc12
14%	O=C(NC1CC1)[C@@H]1CSC2c3ccccc3C(=O)N21 (stereo partly drawn)
-2%	COc1ccc(NC(=O)[C@@]2(CC(=O)O)CC(/C=C/c3ccccc3)=NO2)cc1
16%	CCOc1ccc(S(=O)(=O)N2CCC(C(=O)OCc3cccc(OC)c3OC)CC2)cc1
0%	Cc1cccc(N2CCN(C(=O)Cn3nc(C)c4sc5ccccc5c4c3=O)CC2C)c1 (stereo not drawn)
-16%&-8%	COc1ccc(NC(=O)CC2Nc3cccc4cccc(c34)NC2=O)cc1 (stereo not drawn)
-6%	COc1ccc(-c2cccc(NS(=O)(=O)c3ccc([N+](=O)[O-])cc3)c2)nn1
-17%	COCCCNC(=S)N(CCO)Cc1cc2cc3c(cc2[nH]c1=O)OCO3
7%	C=CCn1c(C)cc(C(=O)CSc2nnc(Cc3ccccc3)o2)c1C
-11%&1%	CCc1ccc(NC(=O)Cn2ncn3c(cc4ccccc43)c2=O)cc1
-12%	COc1ccc(CNC(=O)c2csc3c2CCCC3)cc1
-7%	COc1ccccc1NC(=O)CCCCCN1C(=O)c2cccc3cccc(c23)C1=O
-12%	CCC(=O)Nc1nnc(SCC(=O)NCc2ccc3c(c2)OCO3)s1
2%	CC1(c2ccc3c(c2)OCO3)NC(=O)N(CC(=O)Nc2ccc(N3CCOCC3)cc2)C1=O (stereo not drawn)
-15%	Cc1nnsc1C(=O)N1CCCC(Nc2ccc(C(C)C)cc2)C1 (stereo not drawn)
-13%	CC(C)Cn1c(/C=C/c2ccco2)nc2ccccc21
